# Compound activity as filed in PubChem.
# Calb FLC: C. albicans growth inhibition with fluconazole, primary screen, CaCi-2 strain, Alamar Blue fluorescence; C. albicans CaCi-2 (fluconazole-resistant clinical isolate) + fluconazole, 48 h; growth inhibition, % (concentration not given with the values); hit rate 0.57% among 300,000; AID 1979, 2009;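 active means most replicates above 75%; inconclusive means exactly half above 75%; inactive means most below 75%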;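 further: all wells also contain fluconazole at 8 µg/ml as a sub-toxic cotreatment; 0% = median of DMSO wells and 100% = median of geldanamycin control wells; wells of about 8 µL received 7.5 nL stock; the first replicate is given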
# T cruzi inh: inhibitors of intracellular T. cruzi growth, primary screen, luminescence, NIH3T3 host cells | T. cruzi beta-gal in NIH3T3, 90 h | inhibition, % (no concentration beside the values) | hit rate 1.4% among 300,000 | AID 1885, 2009;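 active means mean inhibition across valid replicates above about 55%, limit read from the data; inconclusive means mean below that limit but half or more replicates reach it; inactive means mean below it, under half of replicates reach it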;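 further: signal also drops with host cell toxicity which is not excluded here; 0% = plate median of DMSO wells and 100% = zero luminescence signal; higher percent means less beta-gal luminescence so fewer parasites; stock transfer was 50 nL into about 50 µL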
# RanGTP-Imp inh: inhibitors of RanGTP-importin-beta interaction, primary screen, biochemical, FRET, CFP-Ran, YFP-importin-beta, homogeneous. Ran GTPase (GTP-bound) - importin-beta complex. cell-free CFP-Ran/YFP-importin-beta FRET ratio. inhibition, % (concentration not given with the values). hit rate 1.1% among 300,000. AID 2216, 2009;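 active means most replicates above 15%; inconclusive means exactly half above 15%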;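 further: 0% = DMSO wells and 100% = Ran loaded with GDP instead of GTP; wells of about 40 µL received 100 nL stock; the first replicate is given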
# A1 inh: caspase 3/7 activation in MEF A1-2A-BIM cells, primary screen, A1 inhibitor project, cell-based, luminescence, HTS. Caspase-Glo 3/7 luminescence, 3 h; percent of clofoctol response, vehicle zero. caspase activation, % (no concentration beside the values). hit rate 0.066% among 330,000;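 active means over half of replicate activation scores above 10%, or exactly half above 10 with the replicate mean above 10; inconclusive means replicate mean below 10 yet half the replicates above 10; inactive means over half of replicates below 10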;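 further: wells of about 30 µL received 50 nL stock; many hits fall short of the cut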
# MLL AF4-AF9 inh: inhibitors of AF4 peptide binding to AF9, primary screen, biochemical, AlphaScreen, biotin-AF4 peptide, FLAG-AF9, single point. hit rate 0.47% among 350,000. Protein AF-9 (Homo sapiens), P42568. inhibition, % at 10 µM;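 active means every replicate reaching a set inhibition limit, whatever the replicate mean, cut at about 25% in these data; inconclusive means mean inhibition reaches that limit but some replicates miss it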;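 further: 0% = plate neutral control median and 100% = total signal loss; the record names both 10 and 1 µM as test concentration; the first replicate is given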
# LANA-H2B inh: blockers of LANA interaction with H2A/H2B – biochemical, FP readout, HTS, primary screen | Protein LANA1 (Human herpesvirus 8 type P (isolate GK18)), Q9QR71 | cell-free LANA-H2A/H2B peptide, fluorescence polarization | inhibition, % (test concentration not listed) | hit rate 0.6% among 320,000 | AID 2629, 2010; in the data active means inhibition mostly above about 10%, no sharp cut-off; inactive means mostly below about 6.7%;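 further: stock transfer was 7.5 nL into about 10 µL; 0% = median of vehicle wells and 100% = median of positive control wells; one replicate is shown; the record names a cut of 25% in any replicate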
# Target sequence (Q9QR71 whole entry, looked up): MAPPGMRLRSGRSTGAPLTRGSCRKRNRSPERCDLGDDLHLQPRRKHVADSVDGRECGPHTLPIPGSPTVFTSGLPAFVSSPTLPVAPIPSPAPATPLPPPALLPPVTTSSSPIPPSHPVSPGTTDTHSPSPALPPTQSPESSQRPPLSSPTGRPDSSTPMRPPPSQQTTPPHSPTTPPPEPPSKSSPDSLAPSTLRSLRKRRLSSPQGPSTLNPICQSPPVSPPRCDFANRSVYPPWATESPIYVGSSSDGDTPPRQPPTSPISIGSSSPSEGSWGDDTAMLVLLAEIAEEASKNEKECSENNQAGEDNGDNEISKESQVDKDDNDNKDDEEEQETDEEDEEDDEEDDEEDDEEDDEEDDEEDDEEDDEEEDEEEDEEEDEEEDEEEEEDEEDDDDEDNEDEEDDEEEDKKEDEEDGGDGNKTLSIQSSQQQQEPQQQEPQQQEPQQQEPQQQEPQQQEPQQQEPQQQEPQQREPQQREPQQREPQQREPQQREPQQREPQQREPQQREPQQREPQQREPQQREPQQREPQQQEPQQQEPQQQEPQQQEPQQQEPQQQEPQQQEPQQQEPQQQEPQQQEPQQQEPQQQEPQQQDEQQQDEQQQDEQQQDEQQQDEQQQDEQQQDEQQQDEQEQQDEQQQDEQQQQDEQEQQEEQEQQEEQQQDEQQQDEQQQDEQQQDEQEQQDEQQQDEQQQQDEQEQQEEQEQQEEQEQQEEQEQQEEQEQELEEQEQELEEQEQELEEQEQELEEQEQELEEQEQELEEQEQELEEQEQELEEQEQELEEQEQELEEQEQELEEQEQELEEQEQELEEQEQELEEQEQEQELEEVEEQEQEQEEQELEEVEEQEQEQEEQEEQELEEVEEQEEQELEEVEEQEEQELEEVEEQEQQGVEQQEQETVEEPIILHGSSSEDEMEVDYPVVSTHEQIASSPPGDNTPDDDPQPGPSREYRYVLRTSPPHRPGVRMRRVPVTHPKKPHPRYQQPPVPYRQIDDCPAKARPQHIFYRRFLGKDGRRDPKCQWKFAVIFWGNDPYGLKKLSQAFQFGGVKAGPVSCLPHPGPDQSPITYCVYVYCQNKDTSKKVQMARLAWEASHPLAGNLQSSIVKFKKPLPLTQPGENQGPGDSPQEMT
# Vif A3G: inhibitors of Vif binding to APOBEC3G peptide, primary screen, biochemical, TR-FRET, GST-Vif 1-94, biotin-A3G peptide, dose response retest (AID 1117319); one-dose inhibition, %; IC50 in µM for titrated hits; TR-FRET GST-Vif / biotin-A3G peptide binding; higher % means a stronger effect; test concentration not given here; strong numbers were not always called active; hit rate 0.57% among 260,000;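 active means above the screen mean plus three standard deviations and confirmed in dose response; inconclusive means results disagree or hit not tested in dose response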;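 further: Vif residues 1-94 fused to GST binding biotinylated APOBEC3G peptide 110-148; 0% = full assay without inhibitor and 100% = GST in place of GST-Vif; retest series ran down from 100 µM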
# Beta apoptosis: inhibitors of cytokine-induced beta cell apoptosis, primary screen, luminescence; INS-1E cytokine-induced death, ATP luminescence, 48 h; percent of positive-control rescue, neutral wells zero; protection from apoptosis, % (no concentration beside the values); hit rate 0.8% among 300,000; AID 435005, 2010;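 active means all replicates at 75% or more, or half of them and the mean; inconclusive means half reach 75% but not the mean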;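 further: 0% = cytokine-treated negative control wells and 100% = positive control rescue; higher means more ATP so stronger rescue from cytokine killing; wells of about 40 µL received 100 nL stock; the first replicate is given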
# * = called active by the depositor; ? = inconclusive; nt = not tested or not shown.
(1) O=C(NNC1=Nc2cc([N+](=O)[O-])ccc2OC1)c1ccccc1Cl
(2) COc1cccc(/C=N/NC(=O)CC2C(=O)NN=C2C)c1O (stereo not given)
(3) CC[C@]12c3[nH]c4ccccc4c3CCN1C(=O)C(CC(=O)NCCC1=CCCCC1)C[C@@H]2C(=O)N1CCN(C(=O)C2CC2)CC1 (stereo not given in full)
(4) CC(C)(C)OC(=O)NCCCC[C@H](NC(=O)c1nc[nH]c1C(=O)N1CCN(C(=O)OC(C)(C)C)CC1)C(=O)OC(C)(C)C
(5) Cc1c(NC(=S)N/N=C/c2ccc(O)cc2)c(=O)n(-c2ccccc2)n1C
(6) O=C(c1nc2ccc(Cl)cn2c1CN1CCC(CO)CC1)N1CCc2ccccc2C1

entry no.,1,2,3,4,5,6
Calb FLC,-1,-23,nt,9,-1,-4
T cruzi inh,-17,-1,nt,-4,-8,3
RanGTP-Imp inh,-3.9,-2.8,nt,-0.9,1.3,0.0
A1 inh,0.3,-0.2,-0.7,-1.2,-0.6,0.3
MLL AF4-AF9 inh,-11,nt,-0.8,-9.5,nt,1.6
LANA-H2B inh,-7.0,2.6,1.2,3.9,-0.7,-4.3
Vif A3G,?,17%,5%,7%,1%,?
Beta apoptosis,3,-3,-9,4,nt,nt

(7) Cc1ccc(/C=N/NC(=O)Cc2ccc(Cl)cc2)c(O)c1
(8) COC(=O)c1c(C)[nH]c(C(=O)OCc2ccc(F)cc2)c1C
(9) COc1cccc(NC(=O)C(c2ccccc2)N2CCCC2)c1 (stereo not given)
(10) O=C(NCCc1ccccc1)C(=O)Nc1ccc2c(c1)OCCO2
(11) O=C(NCCCN1CCCC1=O)c1cccc(N2CCCC2=O)c1
(12) COc1ccccc1N=C(C)C1=C(O)CSC1=O

entry no.,7,8,9,10,11,12
Calb FLC,-5,-8,-19,-12,-6,3
T cruzi inh,19,16,-4,-1,-12,4
RanGTP-Imp inh,-2.3,1.7,-3.6,-0.6,7.0,3.4
A1 inh,?,0.1,-0.6,0.0,0.9,0.2
MLL AF4-AF9 inh,-1.1,nt,2.9,-13,nt,nt
LANA-H2B inh,2.6,2.6,1.7,2.9,5.0,6.8
Vif A3G,nt,-2%,nt,nt,0%,18%
Beta apoptosis,83*,-1,-10,-1,2,2

(13) COc1ccccc1NC(=O)C(=O)NNS(=O)(=O)c1ccc2ccccc2c1
(14) Cc1cccc2c1CC(C)(C)NC2=C(C#N)C#N
(15) O=C(NCc1ccccc1)C(c1ccc(F)cc1)N(C(=O)c1csnn1)C1CC1 (stereo not given)
(16) O=C(Cc1c(F)cccc1Cl)Nc1nccs1
(17) CCOC(=O)N1CCC(NC(=O)C2CCN(C(=O)N3CC(C)Oc4ccccc43)CC2)CC1 (stereo not given)
(18) N#CC1=C(N)Oc2cc(N)ccc2C1c1cccc(F)c1 (stereo not given)

entry no.,13,14,15,16,17,18
Calb FLC,0,13,24,-12,22,-2
T cruzi inh,-11,-2,-4,-4,-17,4
RanGTP-Imp inh,6.2,-0.4,?,3.4,?,38*
A1 inh,-1.1,-0.4,0.5,0.7,0.4,0.6
MLL AF4-AF9 inh,-2.5,-7.7,-1.5,0.6,nt,-1.7
LANA-H2B inh,-0.3,-1.2,2.7,-7.0,1.7,-2.8
Vif A3G,nt,-3%,nt,nt,-1%,nt
Beta apoptosis,-4,1,-2,nt,-6,6

# One compound at a time (already shown). Screens in order: Calb FLC | T cruzi inh | RanGTP-Imp inh | A1 inh | MLL AF4-AF9 inh | LANA-H2B inh | Vif A3G | Beta apoptosis
# O=C(NCc1ccccc1)C(c1ccc(F)cc1)N(C(=O)c1csnn1)C1CC1 (stereo not given) across the screens: 24 | -4 | ? | 0.5 | -1.5 | 2.7 | nt | -2
# Cc1cccc2c1CC(C)(C)NC2=C(C#N)C#N across the screens: 13 | -2 | -0.4 | -0.4 | -7.7 | -1.2 | -3% | 1
# N#CC1=C(N)Oc2cc(N)ccc2C1c1cccc(F)c1 (stereo not given) across the screens: -2 | 4 | 38* | 0.6 | -1.7 | -2.8 | nt | 6
# COc1ccccc1NC(=O)C(=O)NNS(=O)(=O)c1ccc2ccccc2c1 across the screens: 0 | -11 | 6.2 | -1.1 | -2.5 | -0.3 | nt | -4

# Following part
(19) Cc1cc(C(c2ccc(C)o2)c2ccc(C)o2)c(O)c([N+](=O)[O-])c1
(20) COc1cc(C(c2sc3nc(C)nn3c2O)N2CCc3ccccc3C2)cc(OC)c1OC (stereo not given)
(21) O=C(c1c(F)c(F)c(F)c(F)c1F)N(Cc1ccccc1)Cc1ccccc1
(22) COc1ccc(-c2csc3ncnc(NCCCO)c23)cc1
(23) CC1(C)OC(c2ccccc2)=C/C(=C/C=Nc2ccccc2)O1
(24) Cc1ccc(S(=O)(=O)c2c(C)nn(C(C)(C)C)c2OC(=O)c2ccco2)cc1

entry no.,19,20,21,22,23,24
Calb FLC,2,16,-7,-25,-24,32
T cruzi inh,-2,0,8,1,10,-38
RanGTP-Imp inh,3.2,0.6,-1.1,-5.0,4.3,1.9
A1 inh,0.3,-0.2,0.3,-0.4,-0.3,0.2
MLL AF4-AF9 inh,nt,-5.8,nt,-1.4,nt,nt
LANA-H2B inh,-0.5,0.3,-1.3,-0.2,0.3,15*
Vif A3G,?,-1%,2%,nt,nt,25%
Beta apoptosis,-32,-1,2,-3,-8,-2

(25) CCOC(=O)N1CCN(C(=S)NC(=O)c2ccnn2C)CC1
(26) CCCCCN(C(=O)CCCSc1nncs1)c1c(N)n(CCCC)c(=O)[nH]c1=O
(27) COc1ccc(C(=O)/C=C/N(C)C)cc1
(28) O=C(NN1CCOCC1)c1cccc(F)c1
(29) O=C(O)CNS(=O)(=O)c1ccc2c(c1)C(=O)c1cc(S(=O)(=O)NCC(=O)O)ccc1-2
(30) COc1ccc(-c2coc3c(C)c4oc(=O)c(CCC(=O)O)c(C)c4cc23)cc1

entry no.,25,26,27,28,29,30
Calb FLC,6,34,-11,-4,5,32
T cruzi inh,-5,-5,-4,-3,1,-6
RanGTP-Imp inh,-5.7,1.9,-1.5,1.0,-0.1,1.9
A1 inh,-0.1,0.9,-0.7,-0.2,-0.5,-0.4
MLL AF4-AF9 inh,nt,-2.6,nt,-5.2,-5.9,nt
LANA-H2B inh,-1.8,-0.8,2.4,-3.8,-4.3,3.0
Vif A3G,5%,-4%,6%,nt,nt,1%
Beta apoptosis,-3,-1,-4,-10,-8,nt

(31) COC(=O)c1ccc(-c2c(-c3ccccc3)ncc3cc(F)ccc23)cc1
(32) Cc1ccc(-c2onc(C)c2C)cc1S(=O)(=O)N1CC(C)Oc2ccccc21 (stereo not given)
(33) Cc1ccc(NC(=O)O/N=C/c2ccc(N(C)C)cc2)cc1
(34) O=C(CCSc1nnc(-c2ccncc2)o1)Nc1ccccc1
(35) COc1ccc(C2C(C(C)=O)=C(C)Nc3ncnn32)cc1 (stereo not given)
(36) CCC(C)(C)NC(=O)C(c1cccc(OC)c1OC)N(CCC(C)C)C(=O)CCC(=O)Nc1cc(C)on1 (stereo not given)

entry no.,31,32,33,34,35,36
Calb FLC,nt,-2,-16,4,1,16
T cruzi inh,nt,23,-7,-1,8,-8
RanGTP-Imp inh,nt,2.4,0.6,-1.0,-1.9,nt
A1 inh,-1.8,-0.5,-0.4,0.5,-0.1,0.4
MLL AF4-AF9 inh,7.7,2.6,2.5,nt,-5.4,2.2
LANA-H2B inh,-10,0.5,0.9,-1.5,1.4,-3.4
Vif A3G,nt,-1%,-7%,?,nt,-1%
Beta apoptosis,13,8,9,0,1,-3

(37) CC(C)Cc1nnc(NC(=O)CCC(=O)N2CCN(Cc3ccccc3)CC2)s1
(38) COc1ccc(NC(=O)c2cc(S(=O)(=O)N3CCCC3)ccc2OC)cc1
(39) CCOc1ccc(Br)cc1S(=O)(=O)N1CCC(C(N)=O)CC1
(40) COc1cc2ccccc2cc1C(=O)N(CCN(C)C)c1nc2c(F)cc(F)cc2s1
(41) COc1ccc(C(NC(=O)c2ccc(=O)[nH]c2)C(=O)Nc2ccc(C(C)C)cc2)cc1 (stereo not given)
(42) Cc1ccc2nc(SCC(=O)N3CCOCC3)[nH]c2c1

entry no.,37,38,39,40,41,42
Calb FLC,-1,23,11,27,7,3
T cruzi inh,20,21,-10,36,21,-15
RanGTP-Imp inh,-5.5,2.9,-1.0,5.9,3.8,?
A1 inh,-0.8,0.6,0.2,0.1,0.2,0.7
MLL AF4-AF9 inh,-0.5,-6.7,-0.9,?,-4.5,nt
LANA-H2B inh,-2.6,-3.3,6.0,-0.7,3.4,1.8
Vif A3G,nt,-7%,nt,nt,-8%,3%
Beta apoptosis,-3,1,nt,0,3,-10

(43) CCCCCC(=O)Nc1cccc(C2=NOC3(C2)C[C@H](C(N)=O)N(C(=O)CC)C3)c1 (stereo not given in full)
(44) NC(=O)C1CCN(C2=C(Cl)C(=O)c3ccccc3C2=O)CC1
(45) COc1ccc(-c2cc(=O)oc3cc(OC(=O)C4CCCCC4)ccc23)cc1
(46) CC(NC(=O)c1ccc(CS(C)(=O)=O)cc1)c1cccc2ccccc12 (stereo not given)
(47) O=C(NNc1nc2ccccc2s1)Nc1ccc(F)cc1
(48) COc1ccc(-c2nsc(SCC(=O)Nc3cc(C)on3)n2)cc1

entry no.,43,44,45,46,47,48
Calb FLC,-16,4,37,-3,-3,-1
T cruzi inh,-9,59*,-18,4,-12,7
RanGTP-Imp inh,0.9,0.1,-2.9,1.9,0.2,2.4
A1 inh,0.8,-0.1,-0.6,0.5,-0.7,2.3
MLL AF4-AF9 inh,nt,nt,0.9,3.7,4.7,nt
LANA-H2B inh,-1.3,7.9,-1.6,2.1,-1.3,-0.7
Vif A3G,9%,2.5µM*,nt,nt,-10%,-17%
Beta apoptosis,-7,15,-5,-1,-3,-4

(49) CCOc1ccccc1-c1noc(CCC(=O)NC2CCCCC2)n1
(50) C[C@H](CO)NC(=O)[C@H](C)[C@@H]1C[C@@]1(C)[C@@H](NC(=O)OCc1ccccc1)c1ccccc1
(51) COc1ccc2ccccc2c1CN1CCCC(CO)C1 (stereo not given)
(52) COc1ccc(S(=O)(=O)N2CCN(C)CC2)c(C)c1
(53) COc1ccc(-c2cn(CCc3c[nH]c4ccccc34)nn2)cc1
(54) CCc1cc(/C(Cc2cscn2)=N\O)c(O)cc1O

entry no.,49,50,51,52,53,54
Calb FLC,3,-2,-10,-1,-4,-3
T cruzi inh,8,-8,-1,9,-9,3
RanGTP-Imp inh,0.8,5.2,0.5,-2.1,-0.5,?
A1 inh,0.0,-0.3,1.4,0.6,1.5,0.8
MLL AF4-AF9 inh,1.4,nt,nt,4.4,0.3,nt
LANA-H2B inh,2.0,-1.9,-3.3,0.9,0.5,-1.3
Vif A3G,nt,5%,6%,12%,nt,6%
Beta apoptosis,-2,-3,1,nt,1,-10
